Cruzain inh Det: blocks cruzain activity in presence of Triton detergent; purified cruzain, Z-FR-AMC fluorescence, 0.01% Triton; AID 1478; hit rate 0.43% among 200,000; P25779; Potency, µM, inactives show max response, negative = inhibition, hits mostly inhibitors; active = well fitted curve in the direction sought with a large enough effect; inconclusive = small, poorly fitted or top-dose-only effect, or another doubt; inactive = no such curve, though single readings can be large; an effect the other way counts as inactive or inconclusive;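 note: plate controls were neutral wells for no effect and buffer without enzyme for full effect; nearly all actives have a fitted effect of over 40% in size; top concentration of the series not given in the record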
Target sequence (P25779 123-467 limits assumed): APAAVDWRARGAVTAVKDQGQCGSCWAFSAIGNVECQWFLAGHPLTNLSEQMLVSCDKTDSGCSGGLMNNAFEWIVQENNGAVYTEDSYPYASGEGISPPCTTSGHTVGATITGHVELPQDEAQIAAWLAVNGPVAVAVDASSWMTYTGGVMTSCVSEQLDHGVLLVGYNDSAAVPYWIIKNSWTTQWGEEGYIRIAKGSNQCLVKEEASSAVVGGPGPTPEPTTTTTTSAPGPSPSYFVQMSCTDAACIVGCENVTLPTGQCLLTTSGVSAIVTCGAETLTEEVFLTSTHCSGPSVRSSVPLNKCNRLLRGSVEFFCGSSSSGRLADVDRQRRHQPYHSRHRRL
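Steps: dispense cruzain (1.5 nM final) in acetate buffer pH 5.5 with DTT and 0.01% Triton X-100; pin-transfer compounds; incubate 15 min RT; add Z-FR-AMC (2 uM final); read fluorescence every 30 s, using the 60 s intensity change.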
Lassa entry inh: blocks Lassa virus binding to or entry into cells. Lassa virus pseudotype entry inhibition, cell reporter; control for the full effect not named in the record. Potency, µM (series often up to 37.9 µM), for the others: at the top dose activity change, negative = inhibition, hits mostly inhibitors. hit rate 1.2% among 300,000; active means well fitted inhibition curve with a large enough effect; inconclusive means small, poorly fitted or top-dose-only effect, or effect the other way; inactive means flat fitted curve, though single readings scatter; tested in HEK293 cells; note: % is set by controls: 0 for no effect and ±100 for the full control effect; nearly all actives have a fitted effect of over 50% in size; luciferase read-out
2A StopGo: FMDV 2A StopGo reporter, luciferase signal. human cells with a luciferase reporter of 2A StopGo recoding; control for the full effect not named in the record. Potency, µM (doses to about 57.9 µM), inactives show top-dose signal change, negative = less light. hit rate 1.2% among 410,000; active = well fitted falling curve with a large enough effect; inconclusive = small, poorly fitted or top-dose-only effect; inactive = no such curve, though single readings can be large or run the other way; tested in HEK293T cells; note: % is set by controls: 0 for no effect and ±100 for the full control effect; nearly all actives have a fitted effect of over 45% in size; luciferase light after 4 h
SARS PLpro yeast: inhibitors of SARS-CoV papain-like protease in yeast. hit rate 0.19% among 330,000. S. cerevisiae expressing SARS-CoV PLpro, growth rescue; control for the full effect not named in the record. Potency, µM (doses to about 32.9 µM), for the others: top-dose activity, positive = growth rescue; note: 0% is about no effect; nearly all actives have a fitted effect of over 55% in size; growth read by luminescence after 48 h
NS1 inh: influenza NS1 inhibition | S. cerevisiae slowed by influenza A NS1, growth recovery by OD600 | Potency, µM (series often up to 46.1 µM), without a hit: at the highest dose activity, positive = more growth | hit rate 0.4% among 270,000 | AID 2326; note: actives are rising curves; nearly all actives have a fitted effect of over 50% in size
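Growth recovery, yeast-based: influenza A NS1 expressed in S. cerevisiae causes slow growth, and suppressors are detected by OD600. The parent strain without NS1 is used as positive control.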
RE007 growth inh: less growth of the S. pombe RE007 Vpr strain; S. pombe RE007 Vpr strain, BacTiter-Glo ATP luminescence, 24 h; control for the full effect not named in the record; Potency, µM (series often up to 92.2 µM), for inactives: top-dose activity change, negative = less growth; hit rate 0.21% among 360,000; AID 651644; active = well fitted falling curve with a large enough effect; inconclusive = small, poorly fitted or top-dose-only effect; inactive = no such curve, though single readings can be large or run the other way;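 note: % is set by controls: 0 for no effect and ±100 for the full control effect; nearly all actives have a fitted effect of over 50% in size; the assay follows cell death caused by Vpr and the record does not say whether a fall means rescue or toxicity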
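Fission yeast strain RE007, carrying one chromosomally integrated HIV-1 vpr copy, was seeded at OD 0.01 in PMG+AL medium with 23 nL pinned compound. After 24 h at 30 °C and 99% humidity, viability was read by BacTiter-Glo luminescence.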
Marburg entry inh: Marburg virus entry inhibition | Marburg virus pseudotyped entry inhibition, cell reporter; control for the full effect not named in the record; about a third of the inactives were read at about 46 µM | Potency, µM (doses to about 37.8 µM), for the others: at the highest dose activity change, negative = inhibition, usual class: inhibitors | hit rate 1.8% among 300,000 | AID 540276; active = well fitted inhibition curve with a large enough effect; inconclusive = small, poorly fitted or top-dose-only effect, or effect the other way; inactive = flat fitted curve, though single readings scatter; tested in HEK293 cells; about a fifth of its hits are not listed in these tables; note: % is set by controls: 0 for no effect and ±100 for the full control effect; luciferase read-out
Cruzain noTriton: cruzain (T. cruzi) inhibition without detergent; hit rate 2.3% among 200,000; AID 1476; purified cruzain, Z-FR-AMC fluorescence, no detergent; P25779; Potency, µM, without a hit: max response, negative = inhibition, most hits filed as inhibitors; active = well fitted curve in the direction sought with a large enough effect; inconclusive = small, poorly fitted or top-dose-only effect, or another doubt; inactive = no such curve, though single readings can be large; an effect the other way counts as inactive or inconclusive;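 note: plate controls were enzyme without inhibitor for no effect and buffer without enzyme for full effect; nearly all actives have a fitted effect of over 40% in size; top concentration of the series not given in the record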
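Purified cruzain at 1.5 nM, pre-incubated 15 min with compound at room temperature in 100 mM sodium acetate pH 5.5, 5 mM DTT, 0.00005% Triton X-100. Reaction started with 2 uM Z-FR-AMC; AMC fluorescence increase over 60 s gives rate.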
* hit, by the source's call; ? = inconclusive; · = not tested or not shown; & = joins results of further samples; [ ] = dose if it differs, or a comment. Unless noted, calls come from the whole dose curve; as a rule, active means well fitted rising curve with a large enough effect; inconclusive means small, poorly fitted or top-dose-only effect; inactive means no such curve, though single readings can be large or run the other way. Potency is the fitted concentration of half-maximal effect.

SMILES	Cruzain inh Det	Lassa entry inh	2A StopGo	SARS PLpro yeast	NS1 inh	RE007 growth inh	Marburg entry inh	Cruzain noTriton
Cc1ccccc1NC(=O)Cc1nc(COC(=O)c2cccc([N+](=O)[O-])c2)cs1	·	3%	-9%	-1%	26%	5%	1%	·
O=S(=O)(Nc1cc(S(=O)(=O)N2CCOCC2)ccc1NCC1CCCO1)c1ccc(F)cc1 (stereo not given)	·	-3%	40%[activator]	0%	·	6%	?	·
CCOC(=O)c1nn(-c2ccc(F)cc2)c(-c2ccccc2)c1C(=O)c1ccccc1	1.6%	?	-16%	-4%	1%	22%	?	-1%
O=C(Nc1nc(-c2cc3ccccc3oc2=O)cs1)c1ccco1	-6.7%	·	3%	-3%	-1%	-1%	·	-5%
CCOc1cc(C(=O)NCC(=O)N/N=C/c2sccc2C)cc(OCC)c1OCC	·	·	-9%	0%	2%	24%	·	·
C[N+]12CN3CN(CN(C3)C1)C2	5.0%	-44%	13%	-4%	6%	9%	-17%	-1%
Cc1ccc(NC(=S)N(Cc2cccc(Br)c2)CC2CCC(C(=O)O)CC2)cc1Cl (stereo not given)	·	1%	-27%	-13%	·	-14%	?	·
COCCNC(=O)c1cnn2c1NC(c1ccco1)CC2C(F)(F)F (stereo not given)	-6.1%	1%	1%	-9%	5%	11%	12%	-6%
CCOC(=O)c1ccccc1NC(=O)COC(=O)CCC1CCCC1	·	-6%	-6%	-1%	·	-23%	10%	·
COc1ccccc1N1CCN(C(=O)c2nc(SC)ncc2Cl)CC1	-1.9%	?	25%	·	·	·	-19%[46.1 µM]	-12%

Just SARS PLpro yeast, NS1 inh and 2A StopGo, for some of the entries so far:
SMILES	SARS PLpro yeast	NS1 inh	2A StopGo
COc1ccccc1N1CCN(C(=O)c2nc(SC)ncc2Cl)CC1	·	·	25%
CCOC(=O)c1ccccc1NC(=O)COC(=O)CCC1CCCC1	-1%	·	-6%

New compounds follow:
SMILES	Cruzain inh Det	Lassa entry inh	2A StopGo	SARS PLpro yeast	NS1 inh	RE007 growth inh	Marburg entry inh	Cruzain noTriton
NC(=O)[C@@H]1CCCCNc2c(F)cc([N+](=O)[O-])cc2C(=O)N[C@@H](CCCN=C(N)N)C(=O)NCC(=O)N1	-6.9%	8%	-12%	7%	10%	-2%	-33%	2%
CC(C)(C)C(=O)n1nc(-c2ccccc2)oc1=O	0.1%	8%	-13%	-19%	4%	-1%	9%	-10%
COc1ccccc1NC(=O)CN1C(=O)CC(c2ccc(C)c(C)c2)=Nc2ccccc21	-8.3%	?	9%	·	·	·	·	-17%
CCN(CC)S(=O)(=O)c1ccc(N2CCOCC2)c(NC(=O)C23CC4CC(CC(Cl)(C4)C2)C3)c1	-2.7%	?	-12%	2%	?	·	?	?
O=C(Oc1c(-c2ccccc2)c(=O)n2c3c(cccc13)CC2)c1ccc(F)cc1	·	?	-7%	0%	4%	10%	2%[46.1 µM]	·
O=C1/C(=C\c2ccc(O)cc2)SC(=S)N1Cc1ccccc1	·	?	-20%	-17%	-129%	?	?	·
COc1ccc(C(=O)NCc2nnc(SCC(=O)NCc3ccc(F)cc3)o2)cc1	2.9%	5%	25%	-1%	-2%	-4%	-6%[46.1 µM]	1%
CCCOc1ccc(C2=CSC3=NCCN23)cc1[N+](=O)[O-]	·	-24%[46.1 µM]	-11%	0%	7%	-15%	?	·
O=C(CN(CC1CCCO1)C(=O)CNS(=O)(=O)c1ccc(F)cc1)NCc1ccco1 (stereo not given)	·	-6%	7%	0%	-2%	6%	17%[46.1 µM]	·
Cc1cccc(OCC(=O)NCc2ccncc2)c1C	-2.7%	·	-20%	-3%	2%	-11%	-4%	-1%
COc1ccc(N2CC(=O)N(c3ccc(OC)c(OC)c3)CC2=O)cc1OC	0.9%	1%	0%	-2%	-10%	-9%	?	-1%
CCCCn1c(O)c(C(C)=NCc2ccc(F)cc2)c(=O)[nH]c1=O	-1.9%	-22%	0%	6%	-2%	12%	-3%	28%
CCN1C(=O)CC(N2CCN(c3cccc(OC)c3)CC2)C1=O (stereo not given)	·	6%	-3%	6%	·	-4%	5%	·
O=C(NCCN1CCCc2ccccc21)C1CCC(=O)N(CCc2ccccc2)C1 (stereo not given)	·	·	4%	-1%	28%	12%	·	·
CCc1ccc(NC(=O)C(=O)NCC(c2cccnc2)N2CCc3ccccc3C2)cc1 (stereo not given)	-2.0%	18%[46.1 µM]	10µM*	·	·	·	·	5%
Fc1ccc(CSc2nc(NCc3ccccc3)c3ccccc3n2)cc1	-20%	-10%[46.1 µM]	-2%	·	·	·	·	-15%
COc1ccc(OC)c(NC(=O)CSc2sc3c(O)cc(=O)[nH]c3c2C#N)c1	·	·	12%	17%	?	?	5%[46.1 µM]	·
CC(=O)N1CCc2c(sc(NC(=O)C3CC3)c2-c2nc3ccccc3s2)C1	-1.4%	·	25µM*	-4%	?	-14%	0%	?
O=C(C/C=N/OCc1c(Cl)cccc1Cl)c1ccc(Cl)cc1	-7.2%	0%	27%	-3%	2%	-2%	?	-1%
COc1cc(NC(=O)COc2cc3oc(=O)cc(C)c3cc2Cl)cc(OC)c1OC	·	·	-41%	3%	-6%	-6%	·	·
COc1cc(C2CC(=O)c3c([nH]c(C(=O)OC4CCCCC4)c3C)C2)cc(OC)c1OC (stereo not given)	-2.1%	6.3µM*	11µM*	·	·	·	·	8%
CCn1c(/C=C/c2ccccc2Cl)nc2ccccc2c1=O	·	3%[46.1 µM]	-3%	-3%	-32%	0%	14%[46.1 µM]	·
CCc1ccc(C(C)NC(=O)/C=C/c2ccc(Br)cc2)cc1 (stereo not given)	2.1%	-25%[14.3 µM]	-13%	-9%	-7%	2%	-7%	6%
CCn1c(CN(C)c2ccccc2)nc2ccccc21	·	14%	?	14%	20%	-9%	-3%	·
COc1ccc(C(=O)Nc2ccc(C)cn2)c(OC)c1	-1.8%	0.65µM*	1.8µM*	-21%	-51%	?	1µM*	6%
c1ccc2c(c1)CCN2CCN1CCc2ccccc21	5.6%	4%	0%	-5%	-32%	?	26%	10µM*
COc1cccc(CN2CCC(Oc3ccc(C(=O)N4CCCCC4)cc3)CC2)c1	·	·	4%	1%	2%	9%	·	·
c1ccc2c(c1)Nc1ccncc1S2	·	6%	-15%	-3%	5%	-10%	20%	·
CCOc1ccc(S(=O)(=O)Nc2ccc(OC)nc2)cc1	·	-16%[46.1 µM]	-5%	13%	4%	6%	?	·
Cc1cc(NC(=O)c2ccc(Br)o2)ccc1NC(=O)c1ccco1	·	20%[46.1 µM]	23%	-10%	-25%	?	27%&27%[46.1 µM]	·
Cc1ccc(N2CCN(/N=C/c3ccccc3[N+](=O)[O-])CC2)cc1	·	·	-13%	-3%	0%	-23%	·	·
Cc1nc(SC2CCOC2=O)c2c(C)c(C)sc2n1 (stereo not given)	-0.1%	20%	-24%	5%	-4%	-22%	6%	-6%
O=C(O)c1cccc2c(-c3ccccc3)c(-c3ccccc3)[nH]c12	·	1%	-12%	-16%	-8%	-5%	15%	·
CC(=O)NCc1ccc(S(=O)(=O)NC(C(=O)O)C(C)C)cc1 (stereo not given)	·	-5%	6%	0%	·	10%	1%	·
CN(C)/C=C(\C#N)S(=O)(=O)C(C)(C)C	·	-23%[46.1 µM]	-1%	0%	·	42%	3%[46.1 µM]	·
Cc1cc(Cl)c2oc(C(=O)N3CCC(O)(c4ccccc4)CC3)c(C)c2c1	·	·	46%[activator]	-1%	-34%	31%	·	·
Oc1c(C(c2ccccc2F)N2CCOCC2)sc2nc(-c3ccco3)nn12 (stereo not given)	-1.6%	6%[46.1 µM]	-13%	·	·	·	·	-6%
COc1ccc(C2C(C(C)=O)=C(O)C(=O)N2Cc2ccccc2)c(OC)c1 (stereo not given)	·	·	-10%	-1%	0%	10%	·	·
OCC12CO[C@@H]3c4ccccc4[C@H](OC1)N32 (stereo not given in full)	6.4%	13%	-3%	0%	-9%	3%	10%[46.1 µM]	12%
Cc1ccc(N2CCN(S(=O)(=O)c3nnc(NC(=O)c4ccccc4)s3)CC2)cc1	-1.6%	6%[46.1 µM]	0%&-2%	5%	0%	-2%	·	2%
Cc1cccc(C)c1OCC(=O)NCc1nnc(SCC(=O)NC2CCCCC2C)n1C (stereo not given)	-7.5%	14%	12%	-5%	-14%	2%	8%	-5%
O=C(Nc1cccc(Cl)c1)C1CCCN(S(=O)(=O)c2ccc(F)cc2)C1 (stereo not given)	-12%	-18%	?	-6%	8%	-4%	?	-4%
Cc1ccc(C(=O)c2coc3ccc(O)c(CN(C)C)c23)cc1	·	·	-1%	-3%	-5%	-9%	·	·
COc1ccccc1C(=O)C1CCCN(C(=O)c2ccccc2Cl)C1 (stereo not given)	·	·	-22%	-1%	-1%	-18%	·	·
Cc1c(NC(=O)CCC2CCCCC2)c(=O)n(-c2ccccc2)n1C	1.4%	2%	·	4%	?	-8%	0%	0%
CC(Nc1n[nH]c(=O)[nH]c1=O)C(=O)N/N=C/c1cccs1 (stereo not given)	·	3%	5%	2%	·	-13%	-22%[46.1 µM]	·
CC(C)COc1ccc(C(=O)OC2CC(C)(C)OCC2CN(C)C)cc1 (stereo not given)	1.3%	-29%	?	1%	15%	4%	?	4%
CC1CCCCC12NC(=O)N(Cc1cc(=O)n3ccsc3n1)C2=O (stereo not given)	·	·	-16%	1%	3%	13%	0%	·
COc1cc(/C=C2/NC(=O)N(Cc3ccccc3F)C2=O)ccc1Oc1ccc([N+](=O)[O-])cn1	-2.8%	3%	?	19%	1%	3%	0%	?
Cc1ccc(NC(=O)C(OC(=O)c2ccc(C=O)cc2)c2ccccc2)cc1Cl (stereo not given)	-8.5%	?	29%	-10%	?	-19%	-10%[46.1 µM]	25µM*
COc1cccc(CN2CCNC(=O)C2CC(=O)NC2CCCCC2)c1OC (stereo not given)	·	·	16%	-2%	10%	10%	·	·
CCN(c1ccccc1)S(=O)(=O)c1cc(C(=O)OCC(=O)c2c(N)n(C)c(=O)n(C)c2=O)ccc1C	·	?	0%	·	·	-19%	?	·

Screening data as filed in PubChem.
